Mtb betalactam = beta-lactam sensitization of Mtb H37Rv, H37Rv; 330,000 tested, 0.27% active; M. tuberculosis H37Rv growth with meropenem, percent inhibition; hits of this screen are not shown here; inhibition, % at 25 µM;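 active = about 74% or more and at least 40 points above the plate without the antibiotic, then above 30% in a dose series; inconclusive = first-round hits that could not be retested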;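 also: growth measured after seven days incubation then overnight dye step; 0% = bacteria only wells and 100% = bacteria with antibiotic; twin plates without the antibiotic show which effects depend on it; some results filed as inactive read as strong as hits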
Arbovirus anti = antivirals against arbovirus infection, primary screen, cell-based, full library, 10K replicate subset; arbovirus infection cell-based antiviral screen; inhibition, % at 10 µM; 200,000 tested, 0.37% active; AID 1251, 2008;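 active = inhibition from about 30%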;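 also: bluetongue infection of BSR cells; cell survival read as ATP light after 72 h; 0% = infected wells without compound and 100% = uninfected wells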
YopH inh = YopH tyrosine phosphatase inhibitors, primary screen, biochemical, fluorescence Ex485/Em525; YopH tyrosine phosphatase [Yersinia enterocolitica]; inhibition, %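 (about 10 µM by stock and volumes)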; 140,000 tested, 0.16% active; AID 898, 2007;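 active = inhibition of 50% or more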;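 also: controls were vehicle for no effect and minimum signal wells for full effect; inactives centre near -20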
Mtb H37Rv = M. tuberculosis H37Rv growth inhibitors, H37Rv strain (AID 1626); M. tuberculosis H37Rv growth inhibition; higher % means a stronger effect; inhibition, % at 10 µM, or IC50 in µM where a hit was titrated; 220,000 tested, 0.95% active;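 active = confirmed in a dose series; inconclusive = inhibition above 80% but not taken into the dose series; inactive = below 80% or under 30% at every dose of the series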;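 also: bacteria incubated seven days before Alamar blue readout; 0% = bacteria only wells and 100% = bacteria with antibiotic wells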
RecA splice inh = Mtb RecA intein splicing inhibitors, primary screen, biochemical, fluorescence, HTS. cell-free RecA intein splicing. inhibition, %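 (about 9 µM by stock and volumes)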. 290,000 tested, 0.75% active; in the data active = inhibition above about 30%; inconclusive = no clear call, values can overlap the other calls;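 also: 0% = vehicle wells and 100% = reference inhibitor control wells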
Target sequence (P9WHJ3 whole entry, looked up, canonical isoform): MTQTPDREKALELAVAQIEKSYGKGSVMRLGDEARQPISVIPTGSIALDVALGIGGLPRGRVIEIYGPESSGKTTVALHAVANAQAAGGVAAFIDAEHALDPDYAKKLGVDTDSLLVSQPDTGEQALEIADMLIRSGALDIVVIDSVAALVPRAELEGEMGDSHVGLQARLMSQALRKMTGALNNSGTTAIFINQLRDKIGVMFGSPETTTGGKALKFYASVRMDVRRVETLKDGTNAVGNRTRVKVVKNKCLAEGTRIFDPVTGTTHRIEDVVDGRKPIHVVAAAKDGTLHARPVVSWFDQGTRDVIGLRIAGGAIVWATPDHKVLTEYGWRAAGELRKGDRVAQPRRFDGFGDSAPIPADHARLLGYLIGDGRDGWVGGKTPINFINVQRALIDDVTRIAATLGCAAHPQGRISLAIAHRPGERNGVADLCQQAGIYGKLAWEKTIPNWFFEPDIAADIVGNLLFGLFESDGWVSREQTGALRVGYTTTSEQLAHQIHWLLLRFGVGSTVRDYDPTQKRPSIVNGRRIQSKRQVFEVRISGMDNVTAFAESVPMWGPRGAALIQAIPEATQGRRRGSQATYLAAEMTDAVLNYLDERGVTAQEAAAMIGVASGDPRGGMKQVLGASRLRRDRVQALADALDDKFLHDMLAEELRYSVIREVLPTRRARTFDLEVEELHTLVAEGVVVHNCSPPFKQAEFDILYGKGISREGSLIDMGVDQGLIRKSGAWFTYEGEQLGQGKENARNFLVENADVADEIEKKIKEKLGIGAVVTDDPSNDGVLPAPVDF
Arbovirus anti repeat = second read-out of Arbovirus anti, no call of its own (marks repeat the call); inhibition, %; measured here: 10K subset replicate screen; many hits read low in the repeat;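 first of two repeat runs on a subset; 0% = infected and 100% = uninfected wells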
Starred values were filed as active, the others as inactive; ? = inconclusive; · = not tested or not shown. An excerpt (hit frequency here may not be typical).

SMILES	Mtb betalactam	Arbovirus anti	YopH inh	Mtb H37Rv	RecA splice inh	others
O=C(O)CCCC(=O)OCCCCc1cccs1	1	6	-48	-10%	-1.0
CS(=O)(=O)N(Cc1ccco1)Cc1ccccc1Cl	-1	-5	-21	-1%	-4.2
O=C(Nc1nc2ccccc2n1CCN1CCCCC1)c1ccc(Cl)cc1	65	-2	-8	·	1.6
CC(C)(C)c1ccc(OCC(O)CN2CCN(C(=O)c3ccccc3)CC2)cc1 (stereo not given)	8	·	·	·	-1.3
C=CC(n1cncn1)C(O)(c1ccccc1)c1ccccc1 (stereo not given)	-9	·	·	·	0.9
CCCOc1ccc(N2C(=O)CC(N3CCN(c4nc5ccccc5s4)CC3)C2=O)cc1 (stereo not given)	4	12	22	-4%	-2.5
COc1ccc2cc(C(=O)N3CCN(c4ccccc4OC)CC3)[nH]c2c1	3	·	·	·	-0.6
O=C(OCC1O[C@@H](OC(=O)c2cc(O)c(O)c(O)c2)[C@@H](OC(=O)c2cc(O)c(O)c(O)c2)[C@@H](OC(=O)c2cc(O)c(O)c(O)c2)[C@@H]1OC(=O)c1cc(O)c(O)c(O)c1)c1cc(O)c(O)c(O)c1 (stereo not given in full)	35	-29	72*	14%	·
COc1ccc(CN(CC(=O)NCc2ccccc2)C(=O)CCC(=O)Nc2nccs2)cc1	6	·	·	·	-1.0
CCn1ncc(C2=NOC(C(=O)NCC(C)C)C2)c1C (stereo not given)	-1	0	-13	-2%	0.9
COCCN(CCOc1cc(C)cc(C)c1)Cc1ccc(Cl)cc1	-2	·	·	·	7.7
CO/N=C(/CNC(=O)c1cccc(Cl)c1)c1ccc(Cl)cc1	99	4	-8	·	6.1
CC1(C)Cc2c(cnn2-c2cccc(F)c2)C(NC(=O)CSc2ccccn2)C1 (stereo not given)	-3	·	·	·	-35
COc1ccc(NC(=O)c2cc3c(=O)n(C)c4ccccc4c3n2C)cc1Cl	5	·	·	-10%	2.4
Cc1ccc(OCC(=O)NC2CCS(=O)(=O)C2)c(C)c1 (stereo not given)	-4	·	·	·	-1.3
CCC1(CC)C(=O)NC(=O)NC1=Nc1cccc(OC)c1	-8	-1	-17	-3%	-1.4
CCNC(=S)N/N=C/c1cc(Br)cc(Br)c1OC	-3	-10	-2	-2%	2.0
Cc1ccccc1-n1c(CNc2ccccc2)nc2ccccc2c1=O	-4	·	·	·	2.8
COC(=O)CSc1nnc(COc2ccc([N+](=O)[O-])cc2)n1C	0	-2	·	0%	1.4
COc1ccc(C2C(C#N)=C(N)Oc3cc(C)n(Cc4ccco4)c(=O)c32)cc1 (stereo not given)	0	-9	-12	4%	-1.2
COc1ccccc1N1CCN(/N=C/c2cccc(O)c2)CC1	0	-4	·	-8%	-2.9
CCCN(CCC)c1nc(C)cc(C(C#N)c2nc3ccccc3o2)n1 (stereo not given)	8	10	-32	·	-0.6
O=C(CN(C(=O)CNS(=O)(=O)c1ccc(F)cc1)c1ccccc1)NCc1ccco1	0	·	·	·	-3.5
CC(C)(C)SCCNC(=O)CN1C(=O)c2ccccc2S1(=O)=O	-5	10	-20	-12%	·	Arbovirus anti repeat=1
CC(=O)Nc1sc(N/N=C\c2ccc(O)cc2)nc1-c1cccs1	65	·	·	-7%	2.3
Cc1ccc(NC(=O)CSc2ccc3c(c2)OCCO3)nc1	-1	·	·	·	0.3
CC(C)N(Cc1nc(-c2ccccc2)no1)C(=O)C1CCCCC1	-4	-4	-16	3%	2.9
O=C(c1ccccc1)N1N=C(c2ccc(F)cc2)CC1(O)C(F)(F)F (stereo not given)	15	·	·	·	4.7
Cc1cccc(N2CCN(Cc3cn(C)nc3-c3ccccc3F)CC2)n1	0	-12	·	6%	1.9
O=C(O)c1cccc(COc2ccc3c(c2)CCC3)c1	-6	·	·	-4%	2.2
CCOCCCNC(=O)CN1C(=O)CSc2ccccc21	-8	0	-37	·	0.9	Arbovirus anti repeat=-1
Cc1cccc(NC(=O)NNC(=O)COc2ccc3ccccc3c2)c1	-9	·	·	·	-5.0
O=C(O)c1cc([N+](=O)[O-])ccc1NCc1ccccc1Cl	3	26	·	3%	9.7
COc1ccc(C2C(C(=O)NC(C)C)c3ccccc3C(=O)N2C)cc1OC (stereo not given)	?	2	-51	·	2.5	Arbovirus anti repeat=6
COc1ccc(CNC(=O)Cn2cncn2)cc1OC	-5	10	·	7%	2.0
COc1ccc(-n2cnc3scc(-c4ccc(OC)c(OC)c4)c3c2=O)cc1	2	-1	·	-18%	-1.6
O=C1CCc2cc(S(=O)(=O)N3CCN(c4cccc(Cl)c4)CC3)ccc2N1	6	4	-39	-7%	0.3
Cc1cccc(OCC(=O)N/N=C\c2cc3c(cc2[N+](=O)[O-])OCO3)c1C	11	-1	6	-3%	1.4
CCOc1ccc(C(C(=O)NCCC(C)C)N(CCO)C(=O)c2snc(C(N)=O)c2N)cc1 (stereo not given)	5	·	·	·	-1.2
CN(c1ccccc1)S(=O)(=O)c1cccc(NS(=O)(=O)c2ccc(/C=C/C(=O)O)cc2)c1	-8	10	·	-1%	1.2
Cn1c(=O)c2c(nc(SCC(=O)O)n2Cc2cccc(C(F)(F)F)c2)n(C)c1=O	-9	3	6	-7%	-0.5
Cc1ccccc1-c1nc(CS(=O)(=O)CC(=O)NCCCN2CCCC2)c(C)o1	-1	-1	-50	-4%	-7.5
Cn1cnnc1SCC(=O)N1CCC(Cc2ccccc2)CC1	-22	-18	3	2%	0.8
O=S(=O)(Nc1cccc2cn[nH]c12)c1ccc(F)cc1	9	8	1	-1%	2.2
CCCN(CCC)Cc1c(C(=O)N/N=C/c2ccsc2)nnn1-c1nonc1N	11	·	·	·	-3.3
O=c1c2ccccc2nc(-c2ccccc2)n1-c1ccncc1	6	9	-17	-8%	0.4
CC(C)NC(=O)C(C)n1cccc1C(=O)c1ccccc1 (stereo not given)	-8	6	-36	-6%	-2.3
COCCCNC(=O)Cn1c(=O)n(Cc2ccc(F)cc2)c(=O)c2sccc21	-22	·	·	·	0.7
C[C@@H](CSc1ccccc1)CN1CC[C@H](O)CCC1=O	-3	·	·	·	1.6
COc1ccccc1CCNC(=O)C(=O)NCCC1CCCCN1S(=O)(=O)c1cccs1 (stereo not given)	-8	·	·	·	2.0
COc1cccc(NC(=O)Cn2c(=O)n(-c3ccccc3)c(=O)c3sccc32)c1	-10	10	·	7%	0.8
Cc1cc(=O)oc(C)c1C(=O)NC12CC3CC(CC(C3)C1)C2	-6	5	-52	-8%	-1.9
CC(=O)c1c(CSc2ccccc2)oc2ccc(O)c(CN(C)C)c12	-3	·	·	·	2.7
O=S(=O)(NCC(c1ccc2c(c1)OCO2)N1CCOCC1)c1ccc(Cl)cc1 (stereo not given)	-4	·	·	·	0.7
Cn1cc(Br)c(C(=O)NNC(=O)Nc2ccccc2C(F)(F)F)n1	-4	-1	·	5%	1.2
CC1CC(=O)N(C)c2ccc([N+](=O)[O-])cc2N1 (stereo not given)	-2	-5	4	5%	-6.2
COc1ccc(Sc2ccccc2CN(C)C)cc1OC	-6	-3	-15	0%	-2.5
O=C(CCNS(=O)(=O)c1cccc2nsnc12)N1CCc2ccccc21	-5	10	-19	1%	-1.5
COc1cccc(C2/C(=C(\O)c3ccc4c(c3)OCCO4)C(=O)C(=O)N2CCN(C)C)c1 (stereo not given)	-3	2	-61	-5%	·
Clc1ccc(-c2nnc(-c3cccnc3)o2)cc1	-1	·	·	·	0.0

A portion from further up:
SMILES	Mtb betalactam	Arbovirus anti	YopH inh	Mtb H37Rv	RecA splice inh	others
CN(c1ccccc1)S(=O)(=O)c1cccc(NS(=O)(=O)c2ccc(/C=C/C(=O)O)cc2)c1	-8	10	·	-1%	1.2
Cn1c(=O)c2c(nc(SCC(=O)O)n2Cc2cccc(C(F)(F)F)c2)n(C)c1=O	-9	3	6	-7%	-0.5
Cc1ccccc1-c1nc(CS(=O)(=O)CC(=O)NCCCN2CCCC2)c(C)o1	-1	-1	-50	-4%	-7.5
Cn1cnnc1SCC(=O)N1CCC(Cc2ccccc2)CC1	-22	-18	3	2%	0.8
O=S(=O)(Nc1cccc2cn[nH]c12)c1ccc(F)cc1	9	8	1	-1%	2.2
CCCN(CCC)Cc1c(C(=O)N/N=C/c2ccsc2)nnn1-c1nonc1N	11	·	·	·	-3.3
O=c1c2ccccc2nc(-c2ccccc2)n1-c1ccncc1	6	9	-17	-8%	0.4
CC(C)NC(=O)C(C)n1cccc1C(=O)c1ccccc1 (stereo not given)	-8	6	-36	-6%	-2.3
COCCCNC(=O)Cn1c(=O)n(Cc2ccc(F)cc2)c(=O)c2sccc21	-22	·	·	·	0.7
C[C@@H](CSc1ccccc1)CN1CC[C@H](O)CCC1=O	-3	·	·	·	1.6
COc1ccccc1CCNC(=O)C(=O)NCCC1CCCCN1S(=O)(=O)c1cccs1 (stereo not given)	-8	·	·	·	2.0
COc1cccc(NC(=O)Cn2c(=O)n(-c3ccccc3)c(=O)c3sccc32)c1	-10	10	·	7%	0.8
Cc1cc(=O)oc(C)c1C(=O)NC12CC3CC(CC(C3)C1)C2	-6	5	-52	-8%	-1.9
CC(=O)c1c(CSc2ccccc2)oc2ccc(O)c(CN(C)C)c12	-3	·	·	·	2.7
O=S(=O)(NCC(c1ccc2c(c1)OCO2)N1CCOCC1)c1ccc(Cl)cc1 (stereo not given)	-4	·	·	·	0.7
Cn1cc(Br)c(C(=O)NNC(=O)Nc2ccccc2C(F)(F)F)n1	-4	-1	·	5%	1.2
CC1CC(=O)N(C)c2ccc([N+](=O)[O-])cc2N1 (stereo not given)	-2	-5	4	5%	-6.2
COc1ccc(Sc2ccccc2CN(C)C)cc1OC	-6	-3	-15	0%	-2.5

Sorted by SMILES length (largest number first): some entries from above
SMILES	Mtb betalactam	Arbovirus anti	YopH inh	Mtb H37Rv	RecA splice inh	others
COc1ccccc1CCNC(=O)C(=O)NCCC1CCCCN1S(=O)(=O)c1cccs1 (stereo not given)	-8	·	·	·	2.0
CC1CC(=O)N(C)c2ccc([N+](=O)[O-])cc2N1 (stereo not given)	-2	-5	4	5%	-6.2
CC(C)NC(=O)C(C)n1cccc1C(=O)c1ccccc1 (stereo not given)	-8	6	-36	-6%	-2.3

(list continues)
SMILES	Mtb betalactam	Arbovirus anti	YopH inh	Mtb H37Rv	RecA splice inh	others
CN(NC1OC(=O)c2ccccc21)c1ccc(C(F)(F)F)cc1[N+](=O)[O-] (stereo not given)	2	·	·	-4%	-1.1
O=[N+]([O-])c1ccc(N2CCN(C(=S)NC3CCCCC3)CC2)cc1	16	-14	-13	6%	5.6
Cn1c(=O)c2cn3c(c2n(C)c1=O)C(c1ccccc1)CC(c1ccccc1)=N3 (stereo not given)	14	-5	-3	-3%	7.2
COc1ccc(-c2nnc(N3CCOCC3)c3ccccc23)cc1	-1	·	·	·	2.2
CCC(C(=O)NCc1ccc(F)cc1)n1nc(C)n2c(cc3occc32)c1=O (stereo not given)	-12	·	·	·	1.8
CC(=O)Nc1ccc(-c2csc(NC(=O)C3=COCCO3)n2)cc1	3	·	·	·	1.3
CCN(Cc1cc(=O)n2ccsc2n1)Cc1nc2cc(OC)c(OC)cc2c(=O)[nH]1	-5	·	·	5%	1.5
COC(=O)N/N=C/c1cccc(OC(=O)c2ccc3c(c2)OCO3)c1	9	·	·	1%	0.2
CN1CCN(CCCNC(=O)c2cc3c(=O)oc4ccccc4c3s2)CC1	-14	3	-15	-8%	·
COc1ccc(C2NC(=O)CCC2[N+](=O)[O-])cc1OC (stereo not given)	-9	·	·	·	-2.3
Cc1ccccc1NC(=O)COC(=O)c1cc[n+]([O-])cc1	-6	·	·	·	-1.8
CCCC1(c2ccccc2)NC(=O)N(C/C=C/Cl)C1=O (stereo not given)	6	·	·	·	2.3
COc1ccc(NC(=O)NCc2ccncc2)cc1	0	9	-3	-14%	-4.8
Cc1ccc(-c2cc(C(=O)Nc3ccc(S(=O)(=O)Nc4ncccn4)cc3)[nH]n2)c(O)c1C	2	·	·	-7%	·
O=C(OCc1cnc(Cl)s1)c1c(F)cccc1F	1	3	·	8%	-0.6
Cc1ccc(/C=N/NC(=O)c2cccc([N+](=O)[O-])c2)o1	1	0	0	10%	-2.0
O=P(C(=NCCO)NO)(N1CCOCC1)N1CCOCC1	0	·	·	·	-1.6
COc1ccc(CCNC(=O)c2cc(C(C)C)on2)cc1OC	-5	8	-13	-2%	2.1
CC(=O)c1c(C)[nH]c(C(=O)COC(=O)CN(C)S(=O)(=O)c2ccc(Cl)cc2)c1C	-9	7	1	-3%	0.0
O=C(c1ccccc1)C(O)C(c1ccccc1)N1CCOCC1 (stereo not given)	-4	·	·	·	-2.9
CCOC(=O)N1CCN(S(=O)(=O)c2cc(Br)cc3c2N(C(=O)CC)CC3)CC1	-2	-4	-18	-5%	0.7
CSCC[C@H](NC(=O)[C@@H]1Cc2ccccc2CN1)C(=O)NC1CCCCC1	-1	·	·	·	3.5
